# Bioassay records as filed in PubChem.
# Ecoli rRNA inh: selective bacterial rRNA inhibition in E. coli | E. coli WT GFP vs humanized-ribosome RFP mutants, fluorescence, 24 h; active compounds read low; DMSO median 0, no signal -100 | GFP signal change (wild-type ribosome), % (no concentration beside the values) | actives 1.6% (n = 350,000);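 active = significant combined selectivity score with lowered wild-type GFP, culture density cut under 30%, mutant RFP and density less affected; inactive = any of these conditions unmet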; note: one replicate is shown; some compounds called inactive have numbers as strong as hits
# AF4-AF9 inh: MLL-AF4/AF9 protein interaction inhibition. AlphaScreen, biotin-AF4 peptide binding to FLAG-AF9. inhibition, % at 10 µM. actives 0.47% (n = 350,000). P42568;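 active = every replicate reaching a set inhibition limit, whatever the replicate mean, cut at about 25% in these data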;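 note: 0% = plate neutral control median and 100% = total signal loss; the record names both 10 and 1 µM as test concentration; the first replicate is given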
# Target sequence (P42568 whole entry, looked up): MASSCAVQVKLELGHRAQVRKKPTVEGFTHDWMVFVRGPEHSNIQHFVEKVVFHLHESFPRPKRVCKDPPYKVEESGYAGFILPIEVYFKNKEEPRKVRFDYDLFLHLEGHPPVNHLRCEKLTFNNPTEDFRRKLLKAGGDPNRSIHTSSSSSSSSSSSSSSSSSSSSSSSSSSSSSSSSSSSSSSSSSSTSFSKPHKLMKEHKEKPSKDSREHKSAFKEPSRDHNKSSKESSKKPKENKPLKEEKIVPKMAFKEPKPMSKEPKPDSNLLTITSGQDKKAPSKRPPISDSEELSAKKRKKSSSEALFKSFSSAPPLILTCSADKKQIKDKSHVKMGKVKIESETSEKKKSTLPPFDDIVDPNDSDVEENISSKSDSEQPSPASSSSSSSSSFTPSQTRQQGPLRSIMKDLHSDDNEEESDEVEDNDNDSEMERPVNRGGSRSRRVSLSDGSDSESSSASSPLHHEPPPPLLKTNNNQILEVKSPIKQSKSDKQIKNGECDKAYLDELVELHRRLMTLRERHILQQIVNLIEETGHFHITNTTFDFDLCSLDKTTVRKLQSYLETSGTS
# FGF22 binding: FGF22 (human) thermal shift binding; Q9HCT0; recombinant FGF22 thermal shift, SYPRO orange fluorescence; percent of sucrose octasulfate shift, DMSO zero; calls only at 9.99 µM; actives 1.5% (n = 340,000);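 active = melting point raised past a set limit in the mean and every replicate; three in four hits are not shown here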
# Target sequence (Q9HCT0 whole entry, looked up): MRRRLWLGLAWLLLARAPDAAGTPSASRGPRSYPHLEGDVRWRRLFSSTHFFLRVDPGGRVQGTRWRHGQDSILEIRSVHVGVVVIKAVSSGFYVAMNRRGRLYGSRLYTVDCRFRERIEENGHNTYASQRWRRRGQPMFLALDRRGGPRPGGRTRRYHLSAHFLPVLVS
# Ecoli rRNA inh OD600: also measured in Ecoli rRNA inh; calls as there; OD600 change, %; measured here: OD600 growth;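 optical density of the mix in the first replicate; 0 = DMSO median and -100 = no signal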
# Ecoli rRNA inh RFP: recorded beside Ecoli rRNA inh, whose call it bears; RFP signal change, %; measured here: RFP humanized mutant strains;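 first replicate; 0 = DMSO median and -100 = no signal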
# An asterisk follows results filed as active; i = inactive; & = joins results of further samples. Only part of the results is shown, so the mix of outcomes need not match the whole.
SMILES,Ecoli rRNA inh,Ecoli rRNA inh OD600,Ecoli rRNA inh RFP,AF4-AF9 inh,FGF22 binding
CCCC#Cc1cnc2c(c1)C(=O)N([C@H](C)CO)C[C@@H](C)[C@H](CN(C)C(=O)NCCC)O2,2.3,2.4,-2.5,-2.4,i
COCC#Cc1ccc2c(c1)O[C@H](CN(C)CC1CC1)[C@H](C)CN([C@H](C)CO)S2(=O)=O,5.8,6.5,-0.3,-3.0,i
CCCC#Cc1ccc2c(c1)O[C@H](CN(C)C(=O)CC1CC1)[C@@H](C)CN([C@@H](C)CO)S2(=O)=O,-17.9,-48.8,2.8,6.3,i
C[C@@H]1CN([C@H](C)CO)C(=O)c2cc(/C=C/c3ccccc3)cnc2O[C@@H]1CN(C)S(=O)(=O)c1ccccc1F,1.9,5.7,0.4,5.8,i
COc1cccc(NC(=O)N(C)C[C@@H]2Oc3ncc(C4=CCCCC4)cc3C(=O)N([C@H](C)CO)C[C@@H]2C)c1,-2.8,-6.8,0.2,3.1,i
C[C@H]1CN([C@@H](C)CO)C(=O)c2c(c3ccccc3n2C)-c2ccccc2CO[C@@H]1CN(C)C(=O)Nc1ccc(-c2ccccc2)cc1,4.7,23.2,-2.3,-0.7,i
CCOC(=O)C1=CCN(S(=O)(=O)c2ccc(F)cc2)C1c1ccc(Cl)cc1 (centres undefined),-10.4,-33.4,-3.2,0.9,i
Cc1ccc(S(=O)(=O)Nc2cccc3c2O[C@@H](CN(C)S(=O)(=O)c2ccccc2)[C@H](C)CN([C@@H](C)CO)C3=O)cc1,2.0,-1.4,-2.6,-1.1,i
CO[C@@H]1CN(C)C(=O)c2ccc(NC(=O)c3ccccc3)cc2OC[C@H](C)N(C(C)=O)C[C@H]1C,0.1,4.2,-1.3,-8.2,i
CCCNC(=O)N1[C@H](C#N)[C@@H](c2ccc(-c3cccnc3)cc2)[C@@H]1CO,-3.5,9.4,-3.1,-2.1,i
O=C(Nc1ccccc1)[C@H]1[C@H](CO)[C@H]2Cn3c(cccc3=O)[C@H]2N1CC1CC1,1.6,0.0,1.6,-1.7,i
CC(C)C1C(=O)N(Cc2cn(CCC3OCCCO3)nn2)CCS(=O)(=O)N1Cc1ccc(-c2ccc(Cl)c(Cl)c2)cc1 (centres undefined),7.5,18.0,0.2,-0.2,i
O=C(Nc1ccccc1)N[C@H]1CC[C@@H](CCNS(=O)(=O)c2cccc(F)c2)O[C@@H]1CO,-2.9,-4.2,-1.8,-0.1,i
C[C@@H]1CN([C@H](C)CO)C(=O)c2cc(C3=CCCC3)cnc2O[C@@H]1CN(C)C(=O)C1CCC1,4.7,6.8,-3.9,-7.8,i
Cc1ccc(S(=O)(=O)N(C)C[C@@H]2OCCCC[C@H](C)Oc3ccc(NS(=O)(=O)c4c(C)noc4C)cc3C(=O)N([C@H](C)CO)C[C@@H]2C)cc1,-0.6,-4.9,1.3,3.5,i
O=C(Nc1ccc2c(c1)[C@H]1C[C@@H](CC(=O)N3CCCCC3)O[C@H](CO)[C@H]1O2)NC1CCCC1,-1.3,-7.2,-3.5,0.9,i
COc1cccc(S(=O)(=O)N[C@H]2CC[C@H](CCN)O[C@H]2CO)c1,-4.5,-0.7,-1.2,1.1,i
COc1ccccc1-c1ccc([C@@H]2[C@@H](C#N)N(C(=O)NC(C)C)[C@@H]2CO)cc1,2.8,-7.1,2.9,-11.6,i
C[C@@H]1CN([C@@H](C)CO)C(=O)c2cc(NC(=O)Nc3ccc(F)cc3)ccc2O[C@H]1CN(C)C(=O)NC1CCCCC1,2.2,-0.5,3.4,-1.5,i
O=C(N[C@H]1CC[C@@H](CCn2cc(Cc3ccccc3)nn2)O[C@H]1CO)c1ccccn1,-1.9,-3.0,-0.5,-1.1,i
CC1(c2nnnn2Cc2ccccc2)CCC(=O)N1c1ccc(N2CCOCC2)cc1 (centres undefined),2.9,13.5,-2.9,9.9,i
C[C@@H]1CN([C@H](C)CO)S(=O)(=O)c2ccc(-c3cncnc3)cc2O[C@@H]1CN(C)C(=O)Cc1ccccc1,-3.0,-5.9,-0.2,-1.3,i
C[C@H](CO)N1C[C@H](C)[C@@H](CN(C)Cc2ccc(Cl)c(Cl)c2)Oc2c(NS(=O)(=O)c3ccccc3)cccc2C1=O,-2.1,4.2,-3.5,3.8&3.2,i
Cn1nc(NC(=O)C(F)(F)F)c2nccnc21,13.0,10.7,3.1,-7.2,i
COc1ccccc1S(=O)(=O)N[C@@H]1CC[C@@H](CCNC(=O)C2CCOCC2)O[C@@H]1CO,-0.4,4.1,-1.3,0.6,i
COc1ccc(S(=O)(=O)N(C)C[C@H]2Oc3ccc(NC(=O)Nc4ccc(C(F)(F)F)cc4)cc3C(=O)N([C@H](C)CO)C[C@H]2C)cc1,-1.1,-2.5,-1.5,-0.9,i
Cc1noc(C)c1S(=O)(=O)Nc1ccc2c(c1)C(=O)N([C@@H](C)CO)C[C@H](C)[C@H](CN(C)Cc1ccc(C(=O)O)cc1)OCCCC[C@@H](C)O2,4.7,5.1,-3.0,-11.5,i
COc1ccc2c3c([nH]c2c1)[C@H](CO)N(C(=O)CN(C)C)CC31CCN(Cc2ccncc2)CC1,6.5,15.0,1.4,9.2,i
C[C@H](NC(=O)C[C@@H]1C[C@H]2c3cc(NC(=O)C4CCOCC4)ccc3O[C@H]2[C@@H](CO)O1)c1ccccc1,8.6,5.3,1.6,2.9,i
C[C@@H]1CN([C@H](C)CO)C(=O)c2cc(NC(=O)C3CC3)ccc2O[C@@H]1CN(C)Cc1ccc(-c2ccccc2)cc1,3.1,-20.2,3.3,5.5,i
O=C(C[C@H]1CC[C@H](NC(=O)Nc2cccc(F)c2)[C@@H](CO)O1)NCC1CCCCC1,-0.1,9.8,0.4,0.5,i
C[C@@H]1CN([C@H](C)CO)C(=O)c2cccc(NS(=O)(=O)c3ccc(F)cc3)c2O[C@H]1CN(C)C(=O)Nc1ccc2c(c1)OCO2,1.5,-1.7,0.8,-2.1,i
COc1cccc(-c2cnc3c(c2)C(=O)N([C@@H](C)CO)C[C@H](C)[C@@H](CN(C)C(=O)Nc2ccccc2F)O3)c1,0.3,3.1,-0.5,1.6,i
COc1cc(OC)cc(C(=O)NCC2CCN(C(=O)C(=O)c3cc4ccccc4o3)CC2)c1,-12.3,-12.0,-2.4,2.9,i
C[C@@H]1CCCCO[C@H](CN(C)S(=O)(=O)c2ccccc2)[C@@H](C)CN([C@@H](C)CO)C(=O)c2cc(NC(=O)Nc3cccc4ccccc34)ccc2O1,-8.4,-5.7,-7.7,-8.6,i
C[C@@H]1CCCCO[C@@H](CN(C)S(=O)(=O)c2ccccc2)[C@@H](C)CN([C@@H](C)CO)C(=O)c2cc(NS(=O)(=O)c3ccc(F)cc3)ccc2O1,-1.1,4.6,-2.7,0.2,i
CN1C(=O)c2cc(NS(=O)(=O)c3ccccc3F)ccc2OC[C@H]2O[C@H](CC(=O)NC3Cc4ccccc4C3)CC[C@H]21,-3.5,-10.4,1.5,2.7,i
Cc1ccc(C)c2c1CCC(=Cc1ccccc1[N+](=O)[O-])C2=O,-1.8,-13.6,-6.7,2.7,i
CCCNC(=O)NC[C@@H]1[C@@H](c2ccc(C3=CCCCC3)cc2)[C@H](CO)N1C(C)=O,1.3,-19.6,1.6,3.8,i
Cn1cnc(S(=O)(=O)N[C@H]2CC[C@@H](CC(=O)Nc3ccccc3)O[C@H]2CO)c1,-0.5,5.6,-2.8,-2.4,i
Cc1ccc2nc(-c3ccc(Cl)cc3)c(Cc3ccccc3C(F)(F)F)n2c1,-15.7*,-7.0*,6.6*,0.8,i
CCCNC(=O)N(C)C[C@@H]1Oc2ncc(-c3ccccc3)cc2C(=O)N([C@H](C)CO)C[C@@H]1C,1.3,1.8,-1.3,0.5,i
Cn1cnc(S(=O)(=O)N[C@@H]2C=C[C@@H](CC(=O)NCC3CCCCC3)O[C@@H]2CO)c1,0.1,2.0,-1.5,0.7,i
C[C@H]1CN([C@@H](C)CO)C(=O)c2c(c3ccccc3n2C)-c2ccccc2CO[C@@H]1CN(C)S(=O)(=O)c1ccc(C(F)(F)F)cc1,-0.2,8.8,2.2,2.5,i
CN1C(=O)c2cc(NC(=O)C3CCC3)ccc2OC[C@@H]2O[C@@H](CC(=O)NCCc3ccncc3)CC[C@@H]21,0.9,2.5,2.2,-0.5,i
CC(C)NC(=O)N(C)C[C@H]1Oc2ncc(-c3ccccc3F)cc2C(=O)N([C@H](C)CO)C[C@@H]1C,0.4,7.1,1.1,-3.9,i
CO[C@@H]1CN(C)C(=O)c2cc(NS(=O)(=O)CC(F)(F)F)ccc2OC[C@H](C)N(Cc2ccccn2)C[C@@H]1C,2.1,-3.6,-1.4,-11.7,i
CCC(C)n1c(C)cc(=O)n1C(C)CC (centres undefined),7.3,15.8,-0.8,-3.6,i
C[C@@H]1CN([C@H](C)CO)C(=O)c2cc(NS(=O)(=O)c3cccs3)ccc2O[C@@H](C)CCCCO[C@@H]1CN(C)Cc1ccc(C(=O)O)cc1,1.8,2.6,2.2,-0.3,i
C[C@@H]1CN([C@H](C)CO)C(=O)Cc2cc(NC(=O)CCC(F)(F)F)ccc2O[C@H]1CN(C)Cc1ccncc1,3.0,5.5,-0.3,-1.1,i
CCCNC(=O)C[C@@H]1CC[C@H]2[C@H](COc3ccc(NS(=O)(=O)CC)cc3C(=O)N2C)O1,3.6,-4.9,-2.2,-2.1,i
CC(C)[C@@H]1Cc2[nH][nH]c(=O)c2[C@H](c2ccc(F)cc2)O1,17.9,11.7,1.5,1.6,i
C[C@H]1CN([C@@H](C)CO)C(=O)c2cc(Br)cnc2O[C@@H]1CN(C)C(=O)Nc1ccc(F)cc1,0.3,12.4,-3.4,-3.7,i
CS(=O)(=O)Nc1ccc(-c2ccc3nccn3c2)cc1,13.1,17.4,-1.6,0.3,i
CCS(=O)(=O)N1CC(=O)N2[C@H](CO)[C@@H](c3ccc(-c4ccc(C)cc4)cc3)[C@H]2C1,1.4,-8.2,0.2,6.1,i
COc1ccccc1-c1cnc2c(c1)C(=O)N([C@H](C)CO)C[C@@H](C)[C@@H](CN(C)C(=O)CC1CC1)O2,1.0,16.1,1.5,-7.8,i
COc1ccc(NC(=O)Nc2ccc3c(c2)CC(=O)N([C@@H](C)CO)C[C@H](C)[C@@H](CN(C)Cc2ccc(C(=O)Nc4ccccc4N)cc2)O3)cc1,-2.6,-1.7,-1.8,-0.3,i
COCC(=O)Nc1ccc2c(c1)C(=O)N(C)[C@@H]1CC[C@@H](CC(=O)NCC3CC3)O[C@@H]1CO2,4.0,4.0,-2.4,0.1,i
CN(C)C(=O)[C@@H]1[C@@H](CO)[C@@H]2Cn3c(ccc(C4=CCCCC4)c3=O)[C@@H]2N1C(=O)c1ccccc1F,3.0,3.1,-2.4,-1.4,i
CCOC1=C2CN(S(=O)(=O)c3ccccc3)[C@H](c3ccccc3)C[C@H]2n2c(=O)n(-c3ccccc3)c(=O)n2C1,14.7,11.7,5.7,-0.1,i
# Carrying on:
SMILES,Ecoli rRNA inh,Ecoli rRNA inh OD600,Ecoli rRNA inh RFP,AF4-AF9 inh,FGF22 binding
C[C@H](CO)N1C[C@H](C)[C@@H](CN(C)Cc2ccc(-c3ccccc3)cc2)Oc2ccc(NS(C)(=O)=O)cc2C1=O,-4.4,-30.7,-1.5,-2.3,i
COc1ccccc1-c1cn(CC[C@@H]2CC[C@H](NC(=O)C3CCOCC3)[C@H](CO)O2)nn1,2.9,9.2,-4.8,-1.9,i
COc1cccc(C#Cc2ccc([C@H]3[C@@H](CO)N(C(=O)C4CCC4)[C@H]3C#N)cc2)c1,0.6,0.9,-1.0,7.4,i
Cc1ccc(NC(=O)CCNC(=O)N2CC(=O)Nc3ccccc32)cc1Cl,-9.6,-16.2,4.4,-1.8,i
Cc1ccc([C@H]2C[C@H](n3cc(-c4ccc(F)cc4)nn3)[C@@H](O)CN2CC2CCCCC2)cc1,0.1,1.7,-3.0,-1.0,i
COc1ccccc1NC(=O)N[C@@H]1CC[C@H](CC(=O)N2CCC(Cc3ccccc3)CC2)O[C@H]1CO,-4.7,3.3,1.1,-0.5,i
C[C@H]1CN([C@@H](C)CO)C(=O)Cc2cc(NC(=O)C3CC3)ccc2O[C@@H]1CN(C)CC1CC1,4.7,2.6,-2.8,-5.3,i
